MARV entry inh – Marburg virus entry inhibition | Marburg virus pseudotyped entry inhibition, cell reporter; control for the full effect not named in the record; about a third of the inactives were read at about 46 µM | Potency, µM (series often up to 37.8 µM), for the others: at the top dose activity change, negative = inhibition, hits mostly inhibitors | 300,000 compounds, 1.8% hits | AID 540276; active = well fitted inhibition curve with a large enough effect; inconclusive = small, poorly fitted or top-dose-only effect, or effect the other way; inactive = flat fitted curve, though single readings scatter; tested in HEK293 cells; about a fifth of its hits are not listed in these tables; further: on the % scale 0 is the no-effect control and ±100 the full control effect; luciferase read-out
StopGo reporter – FMDV 2A StopGo reporter, luciferase signal; Potency, µM (titrated, usually from 57.9 µM), for the others: at the highest dose signal change, negative = less light; human cells with a luciferase reporter of 2A StopGo recoding; control for the full effect not named in the record; 410,000 compounds, 1.2% hits; active = well fitted falling curve with a large enough effect; inconclusive = small, poorly fitted or top-dose-only effect; inactive = no such curve, though single readings can be large or run the other way; tested in HEK293T cells; further: on the % scale 0 is the no-effect control and ±100 the full control effect; nearly all actives have a fitted effect of over 45% in size; luciferase light after 4 h
Cruzain noTriton – cruzain (T. cruzi) inhibition without detergent; purified cruzain, Z-FR-AMC fluorescence, no detergent; Potency, µM, inactives show max response, negative = inhibition, most hits filed as inhibitors; 200,000 compounds, 2.3% hits; AID 1476;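 further: plate controls were enzyme without inhibitor for no effect and buffer without enzyme for full effect; nearly all actives have a fitted effect of over 40% in size; top concentration of the series not given in the record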
Target sequence (P25779 123-467 limits assumed): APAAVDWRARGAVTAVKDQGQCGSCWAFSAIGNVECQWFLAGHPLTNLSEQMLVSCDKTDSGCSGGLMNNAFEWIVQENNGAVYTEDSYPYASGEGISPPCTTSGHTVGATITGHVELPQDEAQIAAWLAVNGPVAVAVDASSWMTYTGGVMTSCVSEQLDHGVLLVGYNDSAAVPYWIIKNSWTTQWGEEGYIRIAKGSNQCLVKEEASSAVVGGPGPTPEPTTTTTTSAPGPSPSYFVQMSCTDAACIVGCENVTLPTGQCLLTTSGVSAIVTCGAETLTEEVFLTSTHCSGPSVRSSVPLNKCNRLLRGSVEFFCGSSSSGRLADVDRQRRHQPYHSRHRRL
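Purified cruzain at 1.5 nM, pre-incubated 15 min with compound at room temperature in 100 mM sodium acetate pH 5.5, 5 mM DTT, 0.00005% Triton X-100. Reaction started with 2 uM Z-FR-AMC; AMC fluorescence increase over 60 s gives rate.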
SARS PLpro yeast – SARS-CoV PLP inhibition in yeast; S. cerevisiae expressing SARS-CoV PLpro, growth rescue; control for the full effect not named in the record; Potency, µM (top dose mostly 32.9 µM), without a hit: at the highest dose activity, positive = growth rescue; 330,000 compounds, 0.19% hits; active means well fitted rising curve with a large enough effect; inconclusive means small, poorly fitted or top-dose-only effect; inactive means no such curve, though single readings can be large or run the other way; further: 0% is about no effect; nearly all actives have a fitted effect of over 55% in size; growth read by luminescence after 48 h
RE007 growth inh – less growth of the S. pombe RE007 Vpr strain | S. pombe RE007 Vpr strain, BacTiter-Glo ATP luminescence, 24 h; control for the full effect not named in the record | Potency, µM (titrated, usually from 92.2 µM), without a hit: at the top dose activity change, negative = less growth | 360,000 compounds, 0.21% hits; active = well fitted falling curve with a large enough effect; inconclusive = small, poorly fitted or top-dose-only effect; inactive = no such curve, though single readings can be large or run the other way;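 further: on the % scale 0 is the no-effect control and ±100 the full control effect; nearly all actives have a fitted effect of over 50% in size; the assay follows cell death caused by Vpr and the record does not say whether a fall means rescue or toxicity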
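Fission yeast RE007 carrying one integrated HIV-1 vpr copy, seeded at OD 0.01 in PMG+AL medium with 23 nL pinned compound. Grown 24 h at 30 degrees; viability read by BacTiter-Glo luminescence after 5 min.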
NS1 inh – influenza NS1 inhibition | S. cerevisiae slowed by influenza A NS1, growth recovery by OD600 | Potency, µM (series often up to 46.1 µM), for inactives: at the top dose activity, positive = more growth | 270,000 compounds, 0.4% hits | AID 2326; active means well fitted rising curve with a large enough effect; inconclusive means small, poorly fitted or top-dose-only effect; inactive means no such curve, though single readings can be large or run the other way; further: nearly all actives have a fitted effect of over 50% in size
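Growth recovery, yeast-based: influenza A NS1 expressed in S. cerevisiae causes slow growth, and suppressors are detected by OD600. The parent strain without NS1 is used as positive control.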
LASV entry inh – Lassa virus entry inhibition; Potency, µM (series often up to 37.9 µM), for inactives: at the highest dose activity change, negative = inhibition, usual class: inhibitors; AID 540256; 300,000 compounds, 1.2% hits; Lassa virus pseudotype entry inhibition, cell reporter; control for the full effect not named in the record; active means well fitted inhibition curve with a large enough effect; inconclusive means small, poorly fitted or top-dose-only effect, or effect the other way; inactive means flat fitted curve, though single readings scatter; tested in HEK293 cells; further: on the % scale 0 is the no-effect control and ±100 the full control effect; nearly all actives have a fitted effect of over 50% in size; luciferase read-out
Cruzain inh Det – cruzain (T. cruzi) inhibition with detergent | P25779 | purified cruzain, Z-FR-AMC fluorescence, 0.01% Triton | Potency, µM, for the others: max response, negative = inhibition, most hits filed as inhibitors | 200,000 compounds, 0.43% hits;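 further: plate controls were neutral wells for no effect and buffer without enzyme for full effect; nearly all actives have a fitted effect of over 40% in size; top concentration of the series not given in the record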
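In this qHTS format, compounds are incubated with 1.5 nM cruzain for 15 min at room temperature before 2 uM Z-FR-AMC is added. Release of AMC is followed at 360/450 nm, and progress is taken as the 60 s fluorescence difference.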
Numbers without * were called inactive; ? = inconclusive; / = no result given; & = joins results of further samples; [ ] = another dose, or the depositor's remark. Unless noted, the call rests on the fitted dose curve; in most records, active means well fitted curve in the direction sought with a large enough effect; inconclusive means small, poorly fitted or top-dose-only effect, or another doubt; inactive means no such curve, though single readings can be large; an effect the other way counts as inactive or inconclusive. Potency means the concentration at half of the fitted maximal effect.

SMILES | MARV entry inh | StopGo reporter | Cruzain noTriton | SARS PLpro yeast | RE007 growth inh | NS1 inh | LASV entry inh | Cruzain inh Det
COc1ccc(CCNC(=O)CSc2nnc(-c3ccc(C)cc3)c(-c3ccc(C)cc3)n2)cc1OC | / | 0% | 2% | / | / | / | -25%[46.1 µM] | 0.0%
CC(/C=N/NC(=O)NC1CCCCC1)=C\c1ccccc1 | ? | 39%[activator] | / | -2% | -12% | / | / | /
CCN1CCN(c2cc(C)c3cc(NC(=S)N(C)Cc4ccccc4)ccc3n2)CC1 | ? | 36%[activator] | / | 0% | -4% | -3% | ? | /
CC(=O)NC(Cc1cccc(C)c1)C(=O)NC1CCN(S(=O)(=O)c2ccccc2)CC1 (stereo not drawn) | -16%[46.1 µM] | -2% | / | 2% | 14% | -1% | -1% | /
COC(=O)CNC(=O)C1CCN(S(=O)(=O)c2cnc[nH]2)CC1 | / | -10% | / | 1% | -1% | -11% | / | /
S=C(NN=C(c1ccccc1)c1ccccn1)N(Cc1ccccn1)Cc1ccccn1 | 0.63µM* | -20% | / | / | 12% | / | ? | /
Cc1ccc(CN2CC(C(=O)N(Cc3nnc(-c4ccccc4Cl)o3)C3CC3)CC2=O)cc1 (stereo not drawn) | -4% | 12% | / | 2% | 11% | / | -19% | /
C=CCN1C(=O)NC(=O)/C(=C/c2ccoc2)C1=O | ? | 0% | -3% | -7% | 0% | ? | 7% | 1.2%
CCCCC1=CC2=C(c3ccco3)C(=O)C(C)(OC(=O)c3ccc(OC)cc3)C(=O)C2=CN1C1CCCCC1 (stereo not drawn) | -10%&-10%[14.2 µM] | ? | / | 1% | -3% | 2% | / | /
COc1ccc(OC)c(Cc2nnc(CCC(=O)N3CCCCC3c3nccs3)o2)c1 (stereo not drawn) | / | 61%[activator] | / | -1% | -1% | 0% | / | /
COCCCNC(=O)c1cc(Sc2nnc(C)s2)nc2ccccc12 | 11% | -14% | / | 0% | -3% | 2% | 0% | /
COc1ccc(OC)c(CN2CCN(C(=O)c3ccc(F)cc3)CC2)c1 | / | -6% | / | -3% | 11% | 6% | / | /
C=CCn1c(SCC(=O)N2CCCCC2)nnc1-c1ccncc1 | ? | -12% | / | 0% | -5% | -1% | -3% | /
COc1ccccc1CNS(=O)(=O)c1ccc(-n2cccn2)cc1 | -15%[46.1 µM] | 8% | / | 13% | -13% | -1% | 1%[46.1 µM] | /
COc1cc(/C=C(\C#N)C(=O)NCC2CCCO2)cc(OC)c1OC (stereo not drawn) | 10%[46.1 µM] | -9% | / | -1% | 1% | -5% | -5% | /
C/C(=N/NC(=O)CN1CCN(Cc2ccccc2Cl)CC1)c1cccs1 | / | -8% | / | -1% | -15% | -2% | / | /
CCOC(=O)c1ccccc1NC(=O)Cn1c(=O)n(CCCC(=O)NCc2ccc3c(c2)OCO3)c(=O)c2ccccc21 | ? | -17% | -4% | / | / | / | -7%[46.1 µM] | -1.2%
CCN(CC)S(=O)(=O)c1ccc(C)c(NC(=O)COC(=O)CN2C(=O)NC(C)(C)C2=O)c1 | 17% | -7% | / | 2% | 10% | / | 0% | /
CC(=O)Nc1cc2c(cc1[N+](=O)[O-])-c1ccc(F)cc1C2 | -6% | 28% | / | / | -2% | / | 5%[46.1 µM] | /
Cc1ccc(-n2c(O)c(/C=N/c3ncc(Br)cc3Br)c(=O)[nH]c2=O)cc1 | -8%[46.1 µM] | -11% | / | 1% | 23% | 3% | 14% | /
CNc1c([N+](=O)[O-])cnn1-c1ccccc1F | 9%[46.1 µM] | 44%[activator] | / | 1% | 5% | 3% | 12% | /
CCn1c(C)c(C)c2cc(C(=O)NCCCN3CCCC3)ccc21 | / | -7% | / | ? | -8% | 8% | / | /
Cc1ccc(C2(C)NC(=O)N(CC(=O)NCc3cccc(Cl)c3)C2=O)cc1 (stereo not drawn) | / | -19% | / | 1% | -6% | 0% | / | /
CC(=O)Nc1ccccc1OCC(=O)N(Cc1ccccc1)C(C)C | ? | ? | 6% | 19% | -2% | 8% | 3% | 0.5%
NS(=O)(=O)c1ccc(-c2ccc(/C=N/NC(=O)c3ccccc3O)o2)cc1 | / | 3% | / | 1% | 17% | 2% | / | /
Cc1ccc(NC(=O)Cn2c(=O)c3ccccc3n3nncc23)cc1 | -2%[46.1 µM] | -6% | -2% | / | / | / | 11%[46.1 µM] | 5.5%
O=C(O)c1cccc(Nc2ncnc3c2cnn3-c2ccccc2)c1 | -18% | 46%[activator] | -13% | -8% | -10% | 3% | ? | 0.6%
O=C(CN1CCc2ccccc2C1)NC1CCCC1 | / | 20% | / | 0% | -2% | 4% | / | /
O=C1CC(c2ccccc2)CC2=C1C(c1ccccn1)Nc1ccccc1N2 (stereo not drawn) | 5% | / | 2% | 6% | -8% | 0% | -14% | -1.3%
COc1cc(/C=N/NC(=O)C(Cc2c[nH]c3ccccc23)NC(=O)OCC(C)C)cc([N+](=O)[O-])c1OCc1ccccc1 (stereo not drawn) | / | -10% | / | 0% | 17% | 11% | / | /
Cc1cccnc1NC(=O)c1ccc(S(=O)(=O)N2CCCCCC2)cc1 | 4% | -15% | / | -7% | -18% | / | 0% | /
CCN(CC)CCNC(=O)Cn1c(C)cc2ccccc2c1=O | 0% | 14% | -2% | 11% | 5% | 0% | -4% | 1.3%
COc1ccc(OC)c(/C=N/NC(=O)c2[nH]ncc2Br)c1 | -2% | 11% | / | 0% | -8% | -5% | ? | /
CCCCCn1c(=NC(C)=O)c(C#N)cc2c(=O)n3ccccc3nc21 | 3% | -7% | 11% | -3% | 1% | 10% | / | 9.0%
CCCCCCCc1nn2c(=O)cc(O)nc2s1 | 27% | -19% | -1% | -7% | -8% | 11% | 10% | -5.3%
COc1ccc(-c2nc(-c3ccccc3)c(-c3cccs3)[nH]2)cc1OC | ? | / | 25% | -10% | -27% | 20% | ? | -2.1%
CC(=O)c1ccc(N2CCN(S(=O)(=O)c3ccc4c(c3)NC(=O)CC(=O)N4)CC2)cc1 | / | 8% | / | -7% | 9% | -12% | / | /
CSc1cccc(CNC(=O)C2CCC(=O)N(Cc3cccc(C(F)(F)F)c3)C2)c1 (stereo not drawn) | / | 22% | / | 3% | -6% | 12% | / | /
COCCNC(=O)C(=O)Nc1cc2c3c(c1)CCC(=O)N3CCC2 | / | -9% | / | 3% | 1% | -3% | / | /
O=C1C(C2=NC(c3ccccn3)C3C(=O)N(c4ccc(Cl)cc4Cl)C(=O)C23)=C(O)c2ccccc21 (stereo not drawn) | / | 7% | / | 0% | 5% | 8% | / | /
O=C(c1ccc(-n2nc(C(F)(F)F)c3c2CCCC3)cc1)N1CCOCC1 | / | 9% | / | 1% | 9% | -3% | / | /
O=C(C1CCN(S(=O)(=O)c2cccc3nsnc23)CC1)N1CCc2ccccc2C1 | -21% | -5% | -7% | 3% | -4% | 8% | ? | 2.3%
COc1cccc(N2CC(C)Cn3c2nc2c3c(=O)n(CCN3CCOCC3)c(=O)n2C)c1 (stereo not drawn) | 4% | 1% | -1% | 2% | 1% | 1% | 6% | 0.5%
CCOc1ccc(CNC(=O)CCn2cccn2)cc1OC | / | -7% | -10% | / | / | / | -8%[46.1 µM] | -2.6%
CCOc1ccc(C2C(=O)N(C3CCCCCC3)CC(=O)N2CCc2ccccc2)cc1OC (stereo not drawn) | / | -20% | 10% | / | / | / | -26%[46.1 µM] | 0.3%
CCCc1nn2c(=O)cc(COC(=O)c3ccco3)nc2s1 | / | 53%[activator] | -8% | / | / | / | -1%[46.1 µM] | -0.8%
CC(C)(C)NC1=CC(=O)OC12CCCCC2 | -8% | 3% | 2% | 1% | 26% | 8% | 6% | 6.8%
CCn1c(CN2CCCCC2)nc2cc(NC(=O)c3ccc([N+](=O)[O-])cc3)ccc21 | ? | ? | -8% | / | / | / | -2%[46.1 µM] | -14%
O=C(Oc1ccc(F)cc1)N1CCOCC1 | / | -9% | / | -11% | 15% | 13% | / | /
COc1cccc(CNCc2ccc(OC)cc2OC)c1 | / | -12% | / | 1% | 17% | 11% | / | /
More entries
SMILES | MARV entry inh | StopGo reporter | Cruzain noTriton | SARS PLpro yeast | RE007 growth inh | NS1 inh | LASV entry inh | Cruzain inh Det
COc1ccc(NC(=O)Nc2nnc(CC(=O)NCc3ccccc3)s2)cc1 | / | -11% | / | 1% | 0% | 9% | / | /
COc1ccc(CNc2nc(SCc3ccc(Cl)cc3)nc3ccccc23)cc1 | / | -21% | 3% | / | / | / | 15%[46.1 µM] | 1.9%
CNC(=O)c1ccc(Nc2nc(-c3ccccc3)nc3ccccc23)cc1 | ? | ? | / | 1% | -1% | -14% | / | /
Cc1cc(C)cc(-n2ccn(Cc3ccccc3C)c(=O)c2=O)c1 | / | 17% | -16% | / | / | / | 0%[46.1 µM] | -3.6%
COC(=O)c1ccccc1S(=O)(=O)N(CCCO)Cc1cc2c(C)ccc(C)c2[nH]c1=O | ? | -18% | ? | -1% | -4% | -18% | -5% | 13%
CCc1cccc(NC2c3ccccc3C(=O)N2c2ccc(C)cn2)c1 (stereo not drawn) | / | 0% | -6% | -6% | 2% | -72% | / | 1.4%
CCOC(=O)c1csc(COc2ccccc2Cl)n1 | / | 42%[activator] | / | 1% | -6% | -7% | / | /
O=C(CC12CC3CC(CC(C3)C1)C2)NCO | -9%[46.1 µM] | -17% | 7% | 3% | 1% | 11% | 19% | 7.7%
O=C(COc1ccc(Cl)cc1)NCCCNC(=O)c1ccccn1 | 2%[46.1 µM] | -6% | / | 2% | 5% | 7% | -3%[46.1 µM] | /
CCOC(=O)c1c(C2CC2)csc1NC(=O)COC(=O)c1cnc(Cl)c(Cl)c1 | ? | ? | 11% | 26% | / | 9% | 5% | -2.8%
COc1ccc(C(=O)NCC(c2ccc(Cl)cc2)N2CCCCC2)cc1 (stereo not drawn) | ? | -21% | -13% | / | / | / | -14%[46.1 µM] | -0.9%
COc1ccc(-c2ccc(SCC(=O)NCc3ccco3)nn2)cc1 | -14% | 0% | -7% | -2% | -5% | 4% | ? | -2.6%
Cc1nnc(NC(=O)c2ccc3c(c2)C(=O)N(CC2CCCO2)C3=O)s1 (stereo not drawn) | 8% | / | 22% | 2% | 9% | -4% | ? | 5.5%

Assay outcomes (PubChem BioAssay)
